Screening data (PubChem)
AID504770: growth inhibition of E. coli YBA685, primary screen, V. cholerae RctB inhibitors. E. coli YBA685 rctB-dependent plasmid, OD600 growth, 3 h; hits give low values. hit rate 0.27% among 130,000. z-score (no concentration beside the values);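 active = z-score under -2 on both plates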;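 note: wells of about 30 µL received 100 nL stock; score is relative to mean and SD of the test wells; the first replicate is given; strong numbers were not always called active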
Ba CapD inh: Bacillus anthracis CapD inhibitors, primary screen, biochemical, fluorescence intensity | AID 492967, 2010 | purified CapD enzyme, fluorescence intensity read-out; hits give low values; some hits fall short of the stated cut | hit rate 0.23% among 140,000 | CapD gamma-glutamyltranspeptidase (Bacillus anthracis Ames Ancestor) | z-score (concentration not given with the values);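 active = z-score under -4 in either of two replicates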;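 note: stock transfer was 100 nL into about 40 µL; score is relative to mean and spread of the plate; one replicate is shown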
An asterisk follows results filed as active; . = not tested or not shown. A portion of the library (hit frequency here may not be typical).

SMILES,AID504770,Ba CapD inh
COc1cccc(NS(=O)(=O)c2ccc3[nH]cc(C(=O)NCc4ccccc4)c(=O)c3c2)c1,1.4,-0.28
CC(C)C(=O)Nc1c(C(=O)N2CCN(Cc3ccccc3)CC2)oc2ccccc12,0.1,-0.88
COC(=O)c1ccccc1NC(=O)c1ccc(-n2nc(C(F)(F)F)c3c2-c2ccoc2CC3)cc1,-0.8,0.53
CC(C)c1ccc(OCc2ccc(C(=O)Nc3cccnc3)o2)cc1,-0.65,2
FC(F)(F)c1nnc2c3ccccc3nc(-c3ccccc3)n12,-0.15,.
O=C(C(Cc1ccccc1)N1C(=O)C2C3C=CC(C3)C2C1=O)N1CCCCC1 (centres undefined),0.55,0.22
CCc1ccc(N2CC(O)(c3ccc([N+](=O)[O-])cc3)[N+]3=C2SCCC3)cc1 (centres undefined),.,0.24
CCOC(=O)C1=CN(Cc2ccc(OC)c(OC)c2)C=C(C(=O)OCC)C1c1ccc(Br)cc1,.,58
O=C(c1sc2ccccc2c1Cl)N1CCCC1,-0.55,-0.21
CC1(C)CC(=O)C(C(=S)Nc2ccccc2)=C(NCc2ccccc2)C1,-1.2,-0.24
CCOC(=O)c1nc(-c2ccccc2)oc1N(C)C,0.1,.
COc1ccc(-c2cc3cc(OC)c(OC)cc3c(C)n2)cc1C,.,12
O=C(N/N=C/C=C/c1ccccc1)c1ccncc1,1.1,-1.4
CC(C)Cc1nn2c(=O)cc(O)nc2s1,-0.25,.
CN(C)C1(CNC(=O)Cc2ccccc2F)CCCCC1,-0.75,.
O=S(=O)(c1ccc(C(F)(F)F)cc1)N1CCCN(c2ccc(C(F)(F)F)cn2)CC1,-0.55,-0.11
Cc1ccc(C2C(/C=c3/sc4nc5ccccc5n4c3=O)=C(c3ccccc3)Oc3ccccc32)cc1 (centres undefined),.,-0.18
N#CC(c1ccc(F)cc1)c1ccc2c(C(F)(F)F)cc(C(F)(F)F)nc2n1 (centres undefined),.,-0.86
CC(C)(CN1CCC(Cc2ccccc2)CC1)NS(=O)(=O)c1ccccc1,-1.1,-0.39
Cc1ccc(Cn2c(C(=O)O)c(CNC3CC3)c3ccccc32)cc1,-0.35,0.24
Fc1ccc(Nc2nnns2)cc1,-1.6,-1.5
CCc1nnc(NC(=O)CN(CC)CC)s1,0.45,.
Cc1onc(-c2cccc(Cl)c2Cl)c1C(=O)O/N=C(\N)c1ccc([N+](=O)[O-])o1,.,-0.29
CCNC(=O)N1CCN(C(=O)c2cc(N(C)C)nc(N(C)C)n2)CC1,.,-0.22
Cc1cc(C)nc(Nc2ccc(Cl)cc2)n1,.,-0.05
O=c1[nH][nH]c2c1CCCC2,1.4,.
CN(C(=O)C1=CC(c2ccco2)=NS(=O)(=O)N1C)c1ccccc1,0.45,-2.1
CNC(=O)NC(=O)CSc1nnc(-c2ccc(C(C)(C)C)cc2)n1C,1.4,.
CC(=O)Nc1cc(S(C)(=O)=O)ccc1F,.,-0.32
O=C(OC1CCOC1=O)c1cccc(S(=O)(=O)N2CCc3ccccc32)c1 (centres undefined),2.3,.
COC(=O)c1cccnc1-n1c(=O)c2cccnc2n(Cc2ccccc2F)c1=O,0.15,6.2
CC(C)=N/N=C1/NC(=O)C(CC(=O)Nc2cccc3ccccc23)S1 (centres undefined),-1.1,0.14
Cc1ccc(C(=O)N2C(=Nc3cccc(C(F)(F)F)c3)SCC2(C)C)o1,0.1,.
C=CCN1C(=O)C(CCC(=O)O)NC1=S (centres undefined),-0.25,.
CCOc1ccc(S(=O)(=O)N2CCN(c3ccc(OC)cc3)CC2)c2cccnc12,.,-0.15
O=C(NCc1ccco1)Oc1ccccc1,0.35,-0.1

Grouped by structure, those above with a nitro group on carbon
SMILES,AID504770,Ba CapD inh
CCc1ccc(N2CC(O)(c3ccc([N+](=O)[O-])cc3)[N+]3=C2SCCC3)cc1 (centres undefined),.,0.24
Cc1onc(-c2cccc(Cl)c2Cl)c1C(=O)O/N=C(\N)c1ccc([N+](=O)[O-])o1,.,-0.29

The listing continues.
SMILES,AID504770,Ba CapD inh
CC(C)OC(=O)c1oc2c(O)c(O)ccc2c(=O)c1-c1cnn(-c2ccccc2)c1,-0.85,-1.9
CC(=O)C1=NN(c2ccccc2)C2(S1)c1ccccc1C(c1ccc(C(C)(C)C)cc1)=NN2c1ccccc1 (centres undefined),.,-0.09
Cc1cccc(NS(=O)(=O)c2cnc[nH]2)c1,-0.35,9
CCNc1c(NC(=O)c2ccccc2C)c(=O)oc2ccccc12,-0.6,0.065
COc1cccc(C(C#N)N2CCCCC2)c1O (centres undefined),-0.45,-0.43
CNC(=O)COC(=O)c1cccc(S(=O)(=O)N(C)c2ccc(C)cc2)c1,-0.1,.
CCOC(=O)c1nnc(-c2ccccc2)o1,0.05,0.01
CS(=O)(=NS(=O)(=O)c1ccc(-c2ccccn2)s1)c1ccc(Cl)cc1 (centres undefined),-0.5,1.2
O=C(/C=C/c1cccs1)N(c1ccccc1)c1ccccn1,-0.55,-3.6
Cc1ccc(/C=C/C(O)=C2/C(=O)N(C)C3(C)CC2c2ccccc2O3)cc1 (centres undefined),-0.35,-0.49
Cc1ccc(Nc2ccc(C)cc2)cc1,-0.35,0.78
Cn1cnnc1SC/C=C/c1ccccc1,-0.2,0.29
Cc1ccccc1-n1nnnc1SCC(C)C,-0.05,.
O=C(Nc1nccs1)c1cc(-c2ccccc2)nc2ccccc12,-0.2,-0.33
CC(C)(C)c1cc2nc(-c3cccc([N+](=O)[O-])c3)cc(C(F)(F)F)n2n1,.,-0.35
CC1=C(CC(=O)N(C)CCc2c[nH]c3ccccc23)c2cc(F)ccc2/C1=C\c1ccc(S(C)=O)cc1 (centres undefined),.,-1.6
Cc1ccc2[nH]c(=O)c3cc(C(=O)N4CCCc5ccccc54)sc3c2c1,-0.7,-0.52
COc1cccc(N=c2oc3cc(O)ccc3cc2C(=O)NCC2CCCO2)c1 (centres undefined),-0.15,.
O=C(COC(=O)c1cc(O)c(O)c(O)c1)NC1CCCc2ccccc21 (centres undefined),1.4,.
COCCNC(=O)c1ccccc1NC(=O)N(C1CC1)C1CCN(Cc2ccccc2)CC1,.,1.7
Cn1nnnc1SCCOc1ccc(C#N)cc1,-0.8,.
O=C(Cn1c(Cc2ccccc2)nc2sc3c(c2c1=O)CCCC3)Nc1ccc(F)cc1F,.,-0.3
COc1ccc(C(=O)CSC#N)cc1OC,-0.6,-1
Cc1cc(C(=O)N2CCN(C(c3ccccc3)c3ccccc3)CC2)n[nH]1,-0.15,-0.62
CC(C#N)(NC(=O)CSc1ccc(S(=O)(=O)N2CCCCC2)cn1)C1CC1 (centres undefined),0.8,.
CCOC(=O)Cc1ccccc1C(=O)OC,0.05,11
COc1cc(/C=C2/C(=O)N(c3ccc(S(N)(=O)=O)cc3)N=C2C)ccc1OC(=O)c1cccs1,.,-0.3
O=c1cc(CSc2n[nH]c(=O)n2Cc2ccco2)c2ccc(O)cc2o1,-0.45,-1.7
Cc1cc(C)nc(NC(C)(C)C(=O)O)n1,-0.15,.
CCn1c(SC)nnc1C1CCCN(CC(=O)NCc2ccc3c(c2)OCO3)C1 (centres undefined),-1.2,.
S=c1[nH]nc(C2OCCc3ccccc32)o1 (centres undefined),.,-0.07
N=CC1=C(O)CC(c2ccccc2)CC1=O (centres undefined),0.4,.
CC(=O)n1cc(/C=N/NC(N)=O)c2ccccc21,0.7,-0.17
CCCCC1(C2CC(=O)N(c3cc(F)ccc3F)C2=O)C(=O)N(c2ccccc2)N(c2ccccc2)C1=O (centres undefined),.,-0.08
O=C(CCn1c(SCc2ccc(F)cc2)nc2c(sc3ccccc32)c1=O)NCC1CCCO1 (centres undefined),-0.2,0.8
Cc1nnc2sc(SCC(=O)Nc3nccs3)nn2c1=O,-0.1,.

The listing continues.
Each structure is followed by: AID504770	Ba CapD inh
- CCN(CC)c1ccc2cc(-c3nnc(Nc4ccc(Br)cc4)s3)c(=O)oc2c1
  .	-0.54
- O=C(CC(c1ccccc1)c1ccccc1)NCCO
  0.85	0.56
- COCCn1c(C)cc(/C=N/n2c(Cc3cccc4ccccc34)n[nH]c2=S)c1C
  1	.
- COc1cc(C2CC(=O)Nc3ccccc3S2)cc(OC)c1OC (centres undefined)
  1.2	-0.2
- O=C(Nc1ccc(-c2noc(COc3ccccc3Cl)n2)cc1)c1ccco1
  .	0.21
- CC(C)c1ccccc1N=C1SCCN1C1CCS(=O)(=O)C1 (centres undefined)
  -0.8	.
- C=CCn1c2nc3ccccc3nc2c2c(=O)n(C3CCCC3)cnc21
  0.4	43
- CC1CCC(C(C)C)C(OC(=O)CSc2nnnn2C)C1 (centres undefined)
  -0.35	.
- CC(=O)N1CCN(c2ccc(OC(=O)c3ccc(Oc4cc(Cl)cc(Cl)c4)o3)cc2)CC1
  -0.25	0.18
- Cc1ccc2c(c1)C(c1ccccc1Cl)CC(=O)N2 (centres undefined)
  .	-0.42
- O=C(COC(=O)c1cncc(Br)c1)NCc1ccccc1
  -2.2	-0.085
- Cc1cc(C)n(C(C)CC(=O)Nc2ccc3c(c2)OCO3)n1 (centres undefined)
  0.2	0.35
- COc1ccc(OCCNC(=O)c2ccc3snnc3c2)cc1
  -1.2	-0.43
- O=S(=O)(Cc1ccccc1)CC(O)COc1ccc(F)cc1 (centres undefined)
  0.45	0.51
- COCCn1c(C)cc(C(=O)CSc2nnc(-c3ccc4c(c3)OCO4)o2)c1C
  0.45	.
- CCOC(=O)C[N+](CC)(CC)CCOc1cc2c(cc1Cl)-c1cc(Cl)c(OCC[N+](CC)(CC)CC(=O)OCC)cc1C2=O
  .	-0.29
- O=C(NCc1nc(-c2ccc(Cl)cc2)no1)C12CC3CC(CC(C3)C1)C2
  0.65	0.17
- Nc1nc(SCC(=O)c2cc(-c3ccccc3)no2)ncc1C(=O)O
  -0.95	0.34
- CC(=O)Nc1nc2c(c3c1c(=O)oc1ccccc13)CCCCC2
  -1.6	0.12
- Cc1ccc(Cn2ncc3c(N4CCCC4)ncnc32)cc1
  -0.35	.
- CCOc1ccc(S(=O)(=O)Nc2ccccc2C(F)(F)F)cc1
  -0.25	-0.38
- C/C(N)=C(/C#N)C(=O)CSc1n[nH]c(-c2cccs2)n1
  -0.65	.
- CN(C)c1ccc(/C=[N+](\[O-])C2(C)CCCCC2=O)cc1 (centres undefined)
  0.85	-1.4
- Cc1ccc(Cl)cc1N1CCN(C(=O)C2CCN(S(=O)(=O)c3c(C)noc3C)CC2)CC1
  -0.7	0.055
- Cc1cc(-n2c(C)cc(CNCc3nc4ccccc4[nH]3)c2C)no1
  0.6	.
- CC(C)(C)C(=O)n1cc(-c2ccncn2)c(-c2ccccc2Cl)n1
  .	-0.06
- O=C1c2ccccc2NC2(C(=O)Nc3ccccc32)N1CCOc1ccccc1 (centres undefined)
  -0.25	2.3
- CC1CCN(c2ccc(/C=C3\SC(N)=NC3=O)cc2[N+](=O)[O-])CC1
  .	-0.46
- CC1(C)CC(N(Cc2ccccc2)C(=O)Cc2ccccc2)CCO1 (centres undefined)
  -0.65	0.29
- CN1/C(=C2/SC(=S)NC2=O)Sc2ccccc21
  .	-0.53

A portion from further up:
Each structure is followed by: AID504770	Ba CapD inh
- CC1(C)CC(N(Cc2ccccc2)C(=O)Cc2ccccc2)CCO1 (centres undefined)
  -0.65	0.29
- CN1/C(=C2/SC(=S)NC2=O)Sc2ccccc21
  .	-0.53

Further records:
Each structure is followed by: AID504770	Ba CapD inh
- O=S(=O)(NCc1ccc(Cl)cc1)c1cccc2nsnc12
  1.1	-0.64
- COc1ccc(CNC(=O)C2CCNCC2)cc1
  1.1	-0.095
- O=C(CSc1nc2ccccc2o1)N1c2ccccc2OCC1c1ccccc1 (centres undefined)
  -0.55	.
- O=Cc1c2ccc[nH]c-2c2ccccc12
  1.5	0.4
- CC1=C(C(=O)Nc2ccccc2)C(c2ccc(F)cc2)n2ncnc2N1 (centres undefined)
  2.4	-0.42
- CSC1=C(C#N)C2(CCCCC2)C(C#N)=C(NC(=O)CSc2nncn2-c2ccccc2)N1
  -0.55	.
- O=C=Nc1ccc(Cl)cc1Cl
  -0.75	.
- CCOC(=O)CCc1nnc(-c2ccncc2)o1
  -2.8	.
- CCOC(=O)c1nn(-c2ccccc2)c(=O)cc1OCC
  2.6	.
- COc1ccc(N(C)CC(=O)O)c(C(=O)O)c1
  0.95	5.3
- COc1ccc(C2CC(=O)c3cnc(N)nc3C2)cc1OC (centres undefined)
  -0.55	1.3
- CC(C)(C)CC(=O)Nc1nnc(-c2ccccc2)s1
  -0.3	.
- CSc1ccc(C=Nc2ccc(Nc3ccccc3)cc2)cc1
  -0.3	-1.7
- O=C(O)CSCC(=O)N(c1ccccc1)c1ccccc1
  -0.25	0.33
- Cn1c(=O)sn(-c2ccccc2)c1=O
  -5.2*	1.1
- O=C1CCC(C2CCC(=O)N2)N1 (centres undefined)
  0.2	.
- FC(F)(F)c1ccc(NC2CCCCC2)nc1
  1.1	6.1
- CCc1nnsc1C(=O)O
  2.1	.
- NS(=O)(=O)c1ccc2c(c1)Cc1ccccc1-2
  -0.65	0.68
- COc1ccccc1N1CCN(C(=O)c2ccco2)CC1
  1.9	.

Among those listed so far, these have a tert-butyl group:
Each structure is followed by: AID504770	Ba CapD inh
- CNC(=O)NC(=O)CSc1nnc(-c2ccc(C(C)(C)C)cc2)n1C
  1.4	.
- CC(=O)C1=NN(c2ccccc2)C2(S1)c1ccccc1C(c1ccc(C(C)(C)C)cc1)=NN2c1ccccc1 (centres undefined)
  .	-0.09
- CC(C)(C)c1cc2nc(-c3cccc([N+](=O)[O-])c3)cc(C(F)(F)F)n2n1
  .	-0.35
- CC(C)(C)C(=O)n1cc(-c2ccncn2)c(-c2ccccc2Cl)n1
  .	-0.06
- CC(C)(C)CC(=O)Nc1nnc(-c2ccccc2)s1
  -0.3	.
